# Screening results (PubChem BioAssay)
# HNF4A DNA FP: change in binding of human HNF4A to DNA, primary screen, biochemical, fluorescence polarization, FITC-DNA; 1 h; activity change, % at 10 µM; 360,000 compounds, 0.3% hits; in the data active means activity change above about 30%, passing the limit was not always enough;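 further: controls were the assay level and a saturating level of protein; the project sought stronger binding though the title names inhibitors; some compounds called inactive have numbers as strong as hits; positive values seem to mean higher polarization but the record does not say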
# Target sequence (P41235 whole entry, looked up): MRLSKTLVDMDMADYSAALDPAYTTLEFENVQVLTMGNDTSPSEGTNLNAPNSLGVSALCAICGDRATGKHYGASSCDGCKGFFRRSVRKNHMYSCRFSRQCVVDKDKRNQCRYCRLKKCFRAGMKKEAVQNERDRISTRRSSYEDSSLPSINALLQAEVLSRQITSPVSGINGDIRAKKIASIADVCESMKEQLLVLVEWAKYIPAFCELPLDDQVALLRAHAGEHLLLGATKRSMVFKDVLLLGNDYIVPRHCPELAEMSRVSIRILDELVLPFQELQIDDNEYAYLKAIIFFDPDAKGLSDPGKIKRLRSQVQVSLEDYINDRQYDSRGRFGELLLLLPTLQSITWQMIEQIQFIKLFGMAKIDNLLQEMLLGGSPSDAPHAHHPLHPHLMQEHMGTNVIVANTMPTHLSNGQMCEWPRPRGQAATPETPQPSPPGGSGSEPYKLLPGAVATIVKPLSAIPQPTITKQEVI
# ALR inh: inhibitors of human ALR sulfhydryl oxidase, primary screen, biochemical, H2O2 detection, HRP-luminol luminescence, single point; AID 485317, 2010; purified ALR, DTT oxidation; 290,000 compounds, 3.8% hits; inhibition, % (concentration not given with the values); FAD-linked sulfhydryl oxidase ALR (Homo sapiens), P55789;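 active means mean and each replicate at 75% or more; inconclusive means only one of the two met; inactive means neither met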;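 further: stock transfer was 7.5 nL into about 7.5 µL; 0% = neutral wells and 100% = wells with inactivated enzyme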
# Target sequence (P55789 whole entry, looked up): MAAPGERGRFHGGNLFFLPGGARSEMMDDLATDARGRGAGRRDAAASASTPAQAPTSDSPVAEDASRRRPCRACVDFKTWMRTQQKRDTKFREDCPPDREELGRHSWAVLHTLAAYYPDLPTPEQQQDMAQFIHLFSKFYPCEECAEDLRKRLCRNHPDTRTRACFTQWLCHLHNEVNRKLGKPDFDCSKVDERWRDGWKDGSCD
# rRNA inh HTS: reduced GFP signal of wild-type E. coli, primary screen, bacterial rRNA inhibitor project, GFP/RFP fluorescence, OD600, single point; E. coli WT GFP vs humanized-ribosome RFP mutants, 24 h; active compounds read low; DMSO median 0, no signal -100; GFP signal change (wild-type ribosome), % (no concentration beside the values); 350,000 compounds, 1.6% hits;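 active means significant combined selectivity score with lowered wild-type GFP, culture density cut under 30%, mutant RFP and density less affected; inactive means any of these conditions unmet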; further: one replicate is shown; some compounds called inactive have numbers as strong as hits
# FGF22 binding: binders of human FGF22 protein, primary screen, FGF22 synaptogenesis inhibitor project, biophysical, thermal shift, single point; Fibroblast growth factor 22 (Homo sapiens), Q9HCT0; recombinant FGF22 thermal shift, SYPRO orange fluorescence; percent of sucrose octasulfate shift, DMSO zero; calls only at 9.99 µM; 340,000 compounds, 1.5% hits; AID 651658, 2012;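 active means melting point raised past a set limit in the mean and every replicate; inconclusive means no clear call; three in four hits are not shown here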
# Target sequence (Q9HCT0 whole entry, looked up): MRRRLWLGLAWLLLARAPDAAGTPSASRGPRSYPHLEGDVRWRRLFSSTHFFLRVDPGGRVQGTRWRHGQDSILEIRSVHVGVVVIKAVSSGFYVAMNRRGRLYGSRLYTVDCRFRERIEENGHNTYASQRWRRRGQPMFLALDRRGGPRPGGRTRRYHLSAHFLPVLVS
# Vif TR-FRET: inhibitors of Vif binding to APOBEC3G peptide, primary screen, biochemical, TR-FRET, GST-Vif 1-94, biotin-A3G peptide, dose response retest (AID 1117319). Virion infectivity factor (Human immunodeficiency virus type 1 group M subtype B (isolate …. TR-FRET GST-Vif / biotin-A3G peptide binding; higher % means a stronger effect; test concentration not given here; strong numbers were not always called active. inhibition, %; hits with a dose series show IC50 in µM. 260,000 compounds, 0.57% hits;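 active means above the screen mean plus three standard deviations and confirmed in dose response; inconclusive means results disagree or hit not tested in dose response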;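 further: Vif residues 1-94 fused to GST binding biotinylated APOBEC3G peptide 110-148; 0% = full assay without inhibitor and 100% = GST in place of GST-Vif; retest series ran down from 100 µM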
# Ecoli growth: E. coli growth inhibition, primary screen, OD600. Escherichia coli growth, 23 h; active compounds read low. OD600 absorbance (test concentration not listed). 330,000 compounds, 0.21% hits. AID 1053175, 2014;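 active means OD600 absorbance below the run mean of sample wells minus 3.6 SD, in any replicate, cut at about 0.56 in these data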;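 further: stock transfer was 300 nL into about 60 µL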
# MLL AF4-AF9 inh: inhibitors of AF4 peptide binding to AF9, primary screen, biochemical, AlphaScreen, biotin-AF4 peptide, FLAG-AF9, single point | Protein AF-9 (Homo sapiens), P42568 | inhibition, % at 10 µM | 350,000 compounds, 0.47% hits | AID 651704, 2012;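 active means every replicate reaching a set inhibition limit, whatever the replicate mean, cut at about 25% in these data; inconclusive means mean inhibition reaches that limit but some replicates miss it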;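 further: 0% = plate neutral control median and 100% = total signal loss; the record names both 10 and 1 µM as test concentration; the first replicate is given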
# rRNA inh HTS OD600: recorded beside rRNA inh HTS, whose call it bears; OD600 change, %; measured here: OD600 growth;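 optical density of the mix in the first replicate; 0 = DMSO median and -100 = no signal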
# rRNA inh HTS RFP: recorded beside rRNA inh HTS, whose call it bears; RFP signal change, %; measured here: RFP humanized mutant strains;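 first replicate; 0 = DMSO median and -100 = no signal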
# * = called active by the depositor; i = inactive; u = inconclusive; x = not tested or not shown; & = joins results of further samples. Not all compounds are listed (hit frequency here may not be typical).
SMILES,HNF4A DNA FP,ALR inh,rRNA inh HTS,rRNA inh HTS OD600,rRNA inh HTS RFP,FGF22 binding,Vif TR-FRET,Ecoli growth,MLL AF4-AF9 inh
CC(CN1CCOCC1)OC(=O)CCc1ccccc1 (stereo not drawn),3.8,1,14,10,1.2,x,-1%,0.68,-0.8
CC1(C)CN=C(N(C(=O)Nc2ccccc2)c2ccccc2F)S1,1.1,-4,5,6,-1.7,i,2%,0.66,1.5
COc1ccc(CN2C(=O)C(CC(C)C)Nc3ncnc(N4CCOCC4)c32)cc1 (stereo not drawn),3.4,-3,5,8,-1.4,i,x,0.68,x
Cc1ccc(S(=O)(=O)Nc2ccc3c(c2)C(=O)N([C@@H](C)CO)C[C@H](C)[C@H](CN(C)S(C)(=O)=O)O3)cc1,x,x,-1,4,0.4,i,x,x,-2.0
COc1cccc(-c2ccc(-c3noc(-c4ccccc4F)n3)c(OC)n2)c1,-0.3,-2,x,x,x,x,-23%,0.72,x
CCN(CC(=O)NCc1ccc(Cl)cc1)C(=O)c1ccc(S(=O)(=O)N(C)C)cc1,1.7,-9,1,3,-0.2,i,7%,0.69,-1.1
C[C@H]1CN([C@@H](C)CO)C(=O)c2cc(C#Cc3cccc(F)c3)cnc2O[C@@H]1CN(C)CC1CCOCC1,x,x,4,9,-2.5,i,x,x,5.7
C=CCNC(=O)C(=O)Nc1cc2c3c(c1)CCC(=O)N3CCC2,-0.3,0,-2,-4,-2.3,i,-5%,0.7,-0.3
S=C(NC1CCCCC1)NC1CC2C=CC1C2 (stereo not drawn),-1.2,8,x,x,x,i,-5%,0.66,-0.4
CC1(C)CC(=O)c2c(O)cc(OCC(=O)Nc3ccc(S(N)(=O)=O)cc3)cc2O1,1.1,17,x,x,x,i,x,0.72,5.8
C[C@H]1Oc2ccccc2C(=O)C1C(=O)c1ccccc1 (stereo partly drawn),-0.4,x,-25,-17,-9.2,i,x,0.64,x
CCOc1ccc2ccccc2c1/C=N\NC(=O)c1ccc([N+](=O)[O-])cc1,-4.5,-21,3,9,-1.8,i,x,x,-1.1
O=C(NCc1ccco1)C(c1ccco1)N(CCc1ccccc1)C(=O)Cn1nnc2ccccc21 (stereo not drawn),-1.7,-3,x,x,x,x,0%&3%,0.74,x
CCCCOCCCNC(=O)C[C@@H]1C[C@@]2(C(=O)OC)CCCCC=C2N(Cc2ccccc2)C1=O,7.2,x,x,x,x,i,x,x,0.4
OC[C@@H]1[C@@H](c2ccc(-c3ccc(F)cc3)cc2)[C@H]2CN(Cc3ccncc3)CCCCN12,x,x,7,12,1.2,i,x,x,3.8
O=C(NCc1ccc2[nH]c3c(c2c1)CCCC3)c1ccc(S(=O)(=O)N2CCCCC2)cc1,3.2,-1,-5,-10,1.1,i,10%,0.75,-0.4
NC(=O)c1ccc(NC(=O)COC(=O)CCSc2ccccc2)cc1,4.6,-5,1,6,-0.1,i,1%,0.68,0.6
Cc1cc(C)c(NC(=O)C2CCCN(S(=O)(=O)c3c(C)noc3/C=C/N(C)C)C2)c(C)c1 (stereo not drawn),0.7,1,8,11,7.7,i,-2%,0.71,3.3
COc1ccc(-c2nc(C#N)c(N3CC(C)OC(C)C3)o2)cc1OC (stereo not drawn),1.9,1,x,x,x,x,10%,0.69,x
Cc1cnc(NC(=O)Cc2ccccc2F)s1,-4.5,-1,14,19,0.4,i,4%,0.72,-1.4
COc1ccc(C(=O)NC2CCCc3c2cnn3-c2cc(F)cc(F)c2)c(OC)n1 (stereo not drawn),2.9,0,0,9,-12,i,x,0.71,-2.8
Nc1nc(-c2ccccc2)c(N=Nc2ccccc2Cl)s1,3.4,x,x,x,x,x,-1%,0.66,x
O=C(O)c1ccc(Cl)c(NC(=O)C2CCN(S(=O)(=O)c3cccs3)CC2)c1,-6.1,x,x,x,x,i,4%,x,-4.6
O=C(CCCCn1c(=O)[nH]c2ccsc2c1=O)NCc1ccc2c(c1)OCO2,-5.9,-3,-5,-5,-2.3,i,1%,0.77,-7.9
COc1ccc(C(C)(O)c2nc(-c3cccs3)cs2)cc1 (stereo not drawn),-0.8,x,-58,-75,-18,i,x,x,-0.1
CN1/C(=C\C(=O)COC(=O)C2COc3ccccc3O2)C(C)(C)c2ccccc21 (stereo not drawn),2.0,1,x,x,x,x,22%,0.71,x
COc1ccc(C#Cc2ccc3c(c2)O[C@@H](CN(C)C(=O)NC2CCCCC2)[C@H](C)CN([C@H](C)CO)S3(=O)=O)cc1,x,x,0,3,-0.6,i,x,x,-9.5
CCS(=O)(=O)C1=NN2C(=N)/C(=C\c3ccc(OC(=O)c4ccco4)cc3)C(=O)N=C2S1,3.4,30,9,3,-1.2,x,x,0.68,1.9
CCOC(=O)N1CCN(C(c2ccc(Cl)cc2)c2sc3nc(C)nn3c2O)CC1 (stereo not drawn),-0.7,-5,-2,-4,0.4,i,x,0.73,-0.5
CN(C)C(=O)C[C@H]1C[C@H]2c3cc(NC(=O)Nc4ccc(C(F)(F)F)cc4)ccc3O[C@H]2[C@@H](CO)O1,x,x,-4,-4,-3.1,i,x,x,0.9

# Of the compounds above, these contain four or more nitrogen atoms:
SMILES,HNF4A DNA FP,ALR inh,rRNA inh HTS,rRNA inh HTS OD600,rRNA inh HTS RFP,FGF22 binding,Vif TR-FRET,Ecoli growth,MLL AF4-AF9 inh
COc1ccc(CN2C(=O)C(CC(C)C)Nc3ncnc(N4CCOCC4)c32)cc1 (stereo not drawn),3.4,-3,5,8,-1.4,i,x,0.68,x
O=C(NCc1ccco1)C(c1ccco1)N(CCc1ccccc1)C(=O)Cn1nnc2ccccc21 (stereo not drawn),-1.7,-3,x,x,x,x,0%&3%,0.74,x
Cc1cc(C)c(NC(=O)C2CCCN(S(=O)(=O)c3c(C)noc3/C=C/N(C)C)C2)c(C)c1 (stereo not drawn),0.7,1,8,11,7.7,i,-2%,0.71,3.3
COc1ccc(C(=O)NC2CCCc3c2cnn3-c2cc(F)cc(F)c2)c(OC)n1 (stereo not drawn),2.9,0,0,9,-12,i,x,0.71,-2.8
Nc1nc(-c2ccccc2)c(N=Nc2ccccc2Cl)s1,3.4,x,x,x,x,x,-1%,0.66,x
CCS(=O)(=O)C1=NN2C(=N)/C(=C\c3ccc(OC(=O)c4ccco4)cc3)C(=O)N=C2S1,3.4,30,9,3,-1.2,x,x,0.68,1.9
CCOC(=O)N1CCN(C(c2ccc(Cl)cc2)c2sc3nc(C)nn3c2O)CC1 (stereo not drawn),-0.7,-5,-2,-4,0.4,i,x,0.73,-0.5

# Next records.
SMILES,HNF4A DNA FP,ALR inh,rRNA inh HTS,rRNA inh HTS OD600,rRNA inh HTS RFP,FGF22 binding,Vif TR-FRET,Ecoli growth,MLL AF4-AF9 inh
O=C(CCc1nc2ccccc2c(=O)[nH]1)Nc1nc(-c2cccs2)cs1,3.7,-2,-1,-2,0.8,i,0%,0.66,0.4
CC1CC(C)CN(S(=O)(=O)c2cc3c4c(c2)CCC(=O)N4CCC3)C1 (stereo not drawn),5.9,x,2,3,1.4,i,-4%,0.73,-0.9
Cc1ccc(NS(=O)(=O)c2c(C)[nH]c(C)c2C(=O)N2CCCC2)cc1,2.6,-2,0,-5,-2.3,i,14%,0.7,1.1
CC1(C)N=C(N)N=C(N)N1c1cccc(CN)c1,-3.3,-1,18,5,1.6,i,12%,0.67,5.9
CCS(=O)(=O)N1N=C(c2cccs2)CC1c1cc2cc(C)ccc2nc1Cl (stereo not drawn),22,-3,5,8,5.6,i,9%,0.65,-8.6
CCOc1ccccc1-n1c(=S)sc2c(=O)n(-c3ccccc3)c(=S)[nH]c21,-5.0,-18,8,2,-2.8,i,x,0.69,-4.2
C[C@@H](CN1C2=NC[C@@H](Cc3ccccc3)N2C[C@H]1Cc1ccc(O)cc1)NC(=O)CCC1CCCCC1,x,x,-55,-80,-16,i,x,x,1.6
CC(=O)Nc1c(OC(C)=O)ccc2c(C)cc(=O)oc12,-2.9,12,x,x,x,x,2%,0.74,x
COc1ccc(CC(N)c2csc(NC(=O)Nc3ccc(C(C)C)cc3)n2)cc1 (stereo not drawn),-0.5,x,-56,-78,-17,i,x,x,13
O=C1C(=O)N(Cc2ccco2)C(c2cccc(Cl)c2)/C1=C(\O)c1ccc2c(c1)OCCO2 (stereo not drawn),-3.7,x,x,x,x,x,u,0.73,x
CC(=O)/C(=C/N(C)C)C(=O)Nc1ccc(Cl)cc1Cl,-3.7,62,-60,-80,-21,i,-12%,x,-3.8
Cc1ccc(C)c(C(=O)OCC(=O)N(C)c2ccccc2)c1,1.8,1,-1,-8,1.4,i,x,0.65,-0.7
COCC(=O)N1[C@H](C#N)[C@@H](c2ccccc2-c2cccc(OC)c2)[C@@H]1CO,x,x,3,13,-0.9,i,x,x,-1.2
CCC1CCC2(CC1)NC(=O)N(CC(=O)c1c(C)[nH]c3ccccc13)C2=O (stereo not drawn),5.8,-1,x,x,x,x,12%,0.61,x
CCN(CC)c1ccc(-n2cc3c(=O)n(C)c(=O)n(C)c3c2)cc1,2.2,73,x,x,x,x,-1%&30%,0.7,x
Cc1noc(C)c1S(=O)(=O)N(C)C[C@H]1OCCCC[C@H](C)Oc2ccc(NC(=O)Nc3cccc4ccccc34)cc2C(=O)N([C@H](C)CO)C[C@@H]1C,x,x,0,7,-0.4,i,x,x,-3.2
O=C(CSc1ccc(-c2ccccn2)nn1)NCc1ccc(Cl)cc1,0.2,0,12,6,2.0,i,x,0.67,u
Cc1ccc(NC(=O)OCc2cn(-c3ccc(Cl)cc3)nn2)cc1,6.2,-4,x,x,x,x,18%,0.64,x
NC(=O)C1(NC(=O)[C@@H]2CC3(CC(c4cccc(NC(=O)[C@@H]5CCC(=O)N5)c4)=NO3)CN2C(=O)Cc2ccc(C(F)(F)F)cc2)CC1 (stereo partly drawn),-5.3,-2,-1,9,-1.2,i,u,0.79,-1.6
Brc1ccc(Nc2nc(-c3cccnc3)cs2)cc1,5.3,40,-24*,-9.5*,-1.0*,i,21%,0.69,1.5
CCN(CC)C(=O)CSc1ncnc2c(-c3ccc(OC)cc3)nsc12,x,-4,x,x,x,x,-5%,0.71,x
Cc1nc(SCC(=O)NC(=O)NC(C)(C)C)nc(C)c1C,0.3,x,2,7,19,i,x,0.68,0.4
CCCCNC(=S)N(CCCN(C)C)Cc1cc2cc3c(cc2[nH]c1=O)OCO3,3.3,-21,9,5,2.8,i,-6%,0.64,-1.2
COCCSc1nnc(NS(=O)(=O)c2ccc(F)cc2)s1,2.0,-2,6,10,-0.7,i,x,0.68,-0.8
CC1=C(C(=O)OCCBr)C(c2cccc3ccccc23)NC(=O)N1 (stereo not drawn),0.6,-18,7,8,-2.1,i,x,0.71,-8.5
CC(C)C(c1nnnn1Cc1cccs1)N1CCN(C(=O)c2ccco2)CC1 (stereo not drawn),-2.4,-2,-12,-15,-1.0,x,5%,0.69,-0.5
Cc1cccc(OCc2nnc(SCC(=O)c3ccccc3)o2)c1,-3.7,-3,x,x,x,x,6%,0.66,x
